Sa ugtP lethal: kills S. aureus RN4220 lacking UgtP. S. aureus RN4220 ugtP deletion, OD600 growth, 16 h; some inactives read as strong as hits. growth inhibition, % (concentration not given with the values). hit rate 0.54% among 330,000. AID 1259309;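 active = z-score under -3 and OD600 up to 0.15 on both plates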;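 note: plate controls were untreated wells for no effect and antibiotic for full effect; wells of about 80 µL received 100 nL stock; the first replicate is given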
Mtb hypoxia inh: inhibitors of hypoxia-regulated fluorescent reporter in Mycobacterium tuberculosis; hit rate 0.1% among 300,000; fluorescence inhibition, % (test concentration not listed); M. tuberculosis hypoxia-regulated fluorescent reporter, fluorescence; AID 1159583;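 active = 35 to 45% if threefold the growth effect, above 45% if 1.5-fold the growth effect; inactive = the rest, general growth blockers included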;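 note: wells of about 50 µL received 100 nL stock; 0% = vehicle wells and 100% = reference inhibitor wells; whole bacteria with a GFP reporter of the hypoxia response; strong numbers were not always called active; many hits fall short of the cut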
Sa RN4220 lethal: S. aureus RN4220 growth inhibition; AID 1259311; OD600, 16 h; hit rate 0.33% among 330,000; inhibition, % (test concentration not listed);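 active = z-score of -3 or lower and OD600 up to 0.18 on both plates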;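 note: plate controls were untreated cells for no effect and reference antibiotic for full effect; stock transfer was 100 nL into about 80 µL; one replicate is shown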
PrP 5UTR inh: inhibition of PrP 5' UTR reporter expression. cell-based PrP 5' UTR mRNA reporter, plate reader. inhibition, % (no concentration beside the values). hit rate 0.35% among 340,000;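 active = every replicate at 50% or more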;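 note: 0 = median of the neutral control wells; tested in H4 reporter cells; numbers are from one replicate; inactives centre near -14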
BJeLR lethal: kills HRASV12-expressing BJeLR cells | AID 1554 | inhibition, % (test concentration not listed) | BJeLR (HRASV12) viability, CellTiter-Glo ATP luminescence, 48 h; reference of the scale not given here | hit rate 0.17% among 300,000;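 active = replicate mean above 50%; inconclusive = above 50% but judged a plate artefact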;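 note: 50 nL library stock added to about 25 µL; numbers are from one replicate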
Autofluor counter: counter-screen for toxin protease inhibitors: compound fluorescence; fluorescence intensity (no concentration beside the values); compound autofluorescence counterscreen, microsphere flow cytometry; active compounds read high; AID 624483; hit rate 3.1% among 360,000;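 active = at least 3 SD above the mean of all compounds, about 16000 in these data; inconclusive = too few beads counted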;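 note: 100 nL of 1 mM stock went into each well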
Mtb hypoxia inh growth: recorded beside Mtb hypoxia inh, whose call it bears; growth inhibition, %; measured here: M. tuberculosis growth (absorbance);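 0% = vehicle and 100% = reference antibiotic; read after six days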
Active calls of the source: *; ? = inconclusive; . = not tested or not shown; & = joins results of further samples.

SMILES | Mtb hypoxia inh growth | Autofluor counter | Mtb hypoxia inh | Sa ugtP lethal | BJeLR lethal | PrP 5UTR inh | Sa RN4220 lethal
O=C(NCC(c1ccco1)N1CCCC1)c1cccc(S(=O)(=O)Nc2ccc(Br)cc2)c1 (configuration not stated) | 4 | 5512 | 2 | 1 | -2 | -16 | 2.5
Cn1nnc(NC(=O)c2ccc3ccccc3c2)n1 | 6 | 3419 | 12 | -7 | 13 | -21 | -6.3
O=C(CSc1nnc(CNC(=O)c2ccccc2)o1)NCc1ccccc1Cl | 2 | 5582 | 4 | 1 | -7 | -17 | 0.0
Cn1c(=O)c2c(nc(CN3CCN(Cc4ccccc4)CC3)n2CCN2CCOCC2)n(C)c1=O | -1 | 5869 | 4 | -7 | 5 | -28 | -0.6
Cc1ccc(S(=O)(=O)Oc2cccc(/C=N/n3cnnc3)c2)cc1 | . | 2087 | . | . | 5 | -4 | .
CC(C)OCCCn1c(-c2ccc(Br)cc2)c[nH]c1=S | 4 | 3234 | -11 | 3 | 3 | -2 | 1.9
CCc1ccccc1NC(=O)CN1CCN(CC(=O)Nc2ccc(-c3ccccc3)cc2)CC1 | 0 | 3947 | 5 | 3 | -6 | -17 | 0.2
CSc1nsc(SCC(=O)Nc2ccc(F)cc2F)n1 | 20 | 4270 | 13 | 3 | -5 | -53 | 1.5
CC1(C)Cc2c(sc3c2c(=O)n(-c2ccc(Cl)cc2)c(=O)n3CC(N)=O)CO1 | 5 | 4544 | -5 | 0 | 0 | -6 | 2.7
CCc1ccccc1NC(=O)CSc1nnc(CCNC(=O)OC(C)(C)C)o1 | 4 | 6490 | 13 | 7 | 2 | -27 | 5.8
O=C(NCCc1ccc(F)cc1)c1coc(=O)c(Br)c1 | -1 | 4077 | 11 | -2 | 3 | -30 | 0.7
Cc1c(O)ccc(C(Cc2ccc3ccccc3n2)=NN)c1O | 4 | . | 0 | 7 | . | . | 4.4
Cc1ccc(S(=O)(=O)N(CC(O)CN2CCCCC2)c2cccc([N+](=O)[O-])c2)cc1 (configuration not stated) | -9 | 3002 | -1 | 7 | 2 | 1 | 5.3
O=C(O)CCC(=O)Nc1ccc(C(=O)N2CCCCC2)cc1 | 4 | 10142 | 15 | 10 | 1 | -12 | 5.3
CCOc1ccc(NC(=O)[C@@H]2CCCN2C(=O)c2cccs2)cc1S(=O)(=O)N1CCOCC1 | -7 | 2971 | 0 | 10 | . | 9 | 5.9
CCC1Oc2ccccc2N(CC(=O)NCCCN2CCCCC2C)C1=O (configuration not stated) | -11 | 9358 | -3 | 4 | 2 | -7 | 6.7
CN1CCN(Cc2nc(Cc3cccc(F)c3)no2)CC1c1ccccc1 (configuration not stated) | 14 | 4320 | -4 | 2 | 6 | -32 | 3.5
CCOc1ccc(NC(=O)CN(C)C(=O)CCCc2nc3ccccc3c(=O)[nH]2)cc1OCC | 1 | 6299 | 10 | -1 | 2 | -5 | 1.4
O=C(COC(=O)c1ccccc1Cl)Nc1cccnc1Cl | 0 | 3848 | -4 | 5 | . | -7 | -0.8
COC(=O)/C(=C/c1cn(C(C)=O)c2ccccc12)[N+](=O)[O-] | 1 | 6361 | 5 | 7 | . | . | 3.9
Cc1ccn2c(=O)nc(SCC(=O)N3CCN(c4ccccc4)CC3)nc2c1 | -1 | ? | 8 | 1 | 6 | -5 | 2.9
Cc1sc2ncnc(Sc3ccccc3C(=O)Nc3ccc(Br)cc3)c2c1C | 4 | 2564 | 8 | -12 | -9 | -25 | 18
NC(=O)c1ccccc1NC(=O)Nc1cccc(Cl)c1 | 7 | 20064* | 4 | -4 | 7 | 0 | 1.5
O=C(COc1ccccc1)Nn1cnc2ccccc21 | 1 | 7913 | 2 | 4 | -2 | 0 | 0.3
N#Cc1c(N)nc(SCc2ccccc2)c(C#N)c1-c1ccco1 | 4 | 8587 | 0 | 56 | -6 | -11 | 5.2
Cc1cc(OCC(=O)NCCc2ccc(S(N)(=O)=O)cc2)c2c(C)cc(=O)oc2c1 | -3 | 6194 | 7 | 2 | 7 | -2 | 1.3
O=C(NN1CC(C(=O)OCc2ccc(Cl)cc2Cl)CC1=O)c1ccccc1 (configuration not stated) | 6 | 5520 | 3 | -2 | 2 | 4 | 1.6
CCCCCCn1c(C)nc2c(c1=O)c1nc3ccccc3nc1n2N=Cc1ccco1 | 12 | . | 11 | -6 | . | . | 15
COCCCNC(=O)CCc1nc(-c2ccccc2)no1 | 17 | 3505 | 7 | -2 | 2 | -16 | 1.8
COc1ccc(CCNC(=O)c2ccc(OC)c(OC)c2)cc1OC | . | 3398 | . | . | -8 | -9 | .
CC1CCCN(C(=O)c2cc3c(-c4ccc(Cl)cc4)nn(C)c3s2)C1 (configuration not stated) | . | 5377 | . | 12 | 2 | -6 | 7.5
O=C(Nc1ccnn1C1CCN(C(=O)c2cc(Cl)ccc2F)CC1)C1CCOC1 (configuration not stated) | -4 | 5228 | 5 | 3 | 0 | 1 | 2.5
CC(C)CCN1CCN(Cc2cn[nH]c2C2CCCCC2)CC1CCO (configuration not stated) | 4 | 4665 | 1 | -2 | -37 | -22 | -6.3
O=C(OCC(=O)N1CCN(C(=O)c2ccco2)CC1)c1sc2ccccc2c1Cl | 4 | 5821 | 9 | 7 | -11 | -25 | 4.2
COc1ccc(CN2CCOCCOCCOCCOCC2)cc1 | -9 | 3931 | -2 | 6 | -14 | -35 | 3.0
COCc1cc(C)nc(N/N=C/c2ccc(Cl)c(Cl)c2)c1C#N | . | 1919 | . | . | -4 | 0 | .
CC1CCN(C(=O)Oc2ccccc2)CC1 | -5 | 1953 | -1 | -2 | -2 | -23 | 2.9
Cc1ccccc1Oc1ccc(-c2nc(N)nc(N)n2)cc1 | -1 | ? | 4 | 15 | 5 | -28 | -3.4
O=C(O)c1ccc(NC(=O)c2ccccc2NC(=O)c2ccccc2Br)cc1 | 4 | 4114 | 6 | 3 | 0 | -21 | 3.2
COc1ccc(NC(=O)C(CCS(C)(=O)=O)NC(C)=O)cc1 (configuration not stated) | . | 2666 | . | 4 | -4 | 2 | 0.9
O=C(O)CCCC(=O)Nc1nc(-c2ccccc2)cs1 | . | 4876 | . | 3 | 2 | 6 | -0.2
CCCCCCCCCC(=O)N/N=C/c1ccc(C)s1 | . | 6260 | . | . | 9 | -29 | .
CN(C)c1ccc(C=NNC(=O)CNC(=O)c2ccncc2)cc1 | -6 | . | -13 | 8 | . | . | 0.1
CC(C)C(NC(=O)c1ccc(F)cc1)C(=O)OCC(=O)N1CC(=O)Nc2ccccc21 (configuration not stated) | 8 | 8905 | 2 | 6 | -8 | -9 | 2.1
CCOC(=O)C1=C(C)NC2=C(C(=O)CC(C)(C)C2)C1c1cccc(C)n1 (configuration not stated) | 6 | 20812* | 3 | -3 | 6 | -19 | 3.4
Cc1cccc(NC(=O)C2CCCN(S(=O)(=O)c3ccc4c(c3)oc(=O)n4C)C2)c1 (configuration not stated) | 3 | ? | 13 | -7 | -4 | -4 | 3.9
CNC(=O)COC(=O)/C=C/c1ccco1 | -2 | 3497 | 9 | 3 | -3 | -21 | 1.8
Cc1cc(NC(=O)CSc2cn(CCNC(=O)c3ccc(F)cc3)c3ccccc23)no1 | . | 3584 | . | -1 | 10 | -9 | 0.0
Fc1ccc(C2CC(c3ccco3)=NN2c2ccccc2)cc1 (configuration not stated) | 1 | 3720 | 6 | -2 | -6 | -1 | 5.5
OC(C#Cc1ccccn1)c1cccs1 (configuration not stated) | 10 | 3117 | 20 | 4 | 3 | -25 | 8.5
O=S(=O)(c1ccc(OCC(O)CNC23CC4CC(CC(C4)C2)C3)c(Cl)c1)N1CCOCC1 (configuration not stated) | -3 | 4817 | 15 | -78 | 11 | -12 | -1.8
CNC(=O)COc1ncnc2sc(C)c(C)c12 | . | 2842 | . | -8 | -4 | -12 | 3.2
O=C(Nc1ccccc1C(=O)NCCc1ccccc1)c1ccco1 | . | 2599 | . | -8 | -2 | -32 | 3.0
Clc1ccc(CNC2CCN(Cc3ccccc3)CC2)cc1 | -13 | 4183 | 5 | 6 | -8 | -11 | 0.5
O=C(Cn1cncn1)NN=Cc1ccncc1 | 1 | . | 7 | 3 | . | . | 2.1
CS(=O)(=O)c1cccc(NC(=O)C2CC2)c1 | 11 | 2707 | 5 | 12 | 1 | -23 | 3.5
O=C(Nc1nnc(Cc2ccccc2)s1)c1cnccn1 | 10 | 3994 | -2 | 8 | 5 | -4 | 1.4
COc1ccc(CC(=O)NNC(=O)COc2ccc(F)cc2)cc1S(=O)(=O)N1CCOCC1 | 1 | 3626 | 2 | 2 | . | -8 | 1.6
N#C/C(=C\c1cccs1)C(=O)NCc1ccccc1 | 15 | 2434 | 9 | 7 | -12 | -14 | 2.1
O=C(CCC(=O)Nc1cccc([N+](=O)[O-])c1)NN=Cc1cccs1 | 2 | . | 6 | -2 | . | . | -2.6

Reprinted at random: three records from the list, in no set order.
SMILES | Mtb hypoxia inh growth | Autofluor counter | Mtb hypoxia inh | Sa ugtP lethal | BJeLR lethal | PrP 5UTR inh | Sa RN4220 lethal
OC(C#Cc1ccccn1)c1cccs1 (configuration not stated) | 10 | 3117 | 20 | 4 | 3 | -25 | 8.5
O=S(=O)(c1ccc(OCC(O)CNC23CC4CC(CC(C4)C2)C3)c(Cl)c1)N1CCOCC1 (configuration not stated) | -3 | 4817 | 15 | -78 | 11 | -12 | -1.8
O=C(CCC(=O)Nc1cccc([N+](=O)[O-])c1)NN=Cc1cccs1 | 2 | . | 6 | -2 | . | . | -2.6

(cont.)
SMILES | Mtb hypoxia inh growth | Autofluor counter | Mtb hypoxia inh | Sa ugtP lethal | BJeLR lethal | PrP 5UTR inh | Sa RN4220 lethal
O=c1[nH]oc2c1CCNC2 | 6 | 6297 | 3 | -1 | . | -5 | 2.2
O=C1COc2ccc(S(=O)(=O)Nc3ccc(F)cc3)cc2N1 | -1 | 4440 | 8 | 1 | 1 | 2 | 5.6
CCN=C1SC(CC(=O)Nc2ccccc2)C(=O)N1CC (configuration not stated) | 11 | 3705&6062 | -5 | -1&11 | 0 | -8&-18 | 4.3&3.8
Cc1ccc(C(C)C)c(OCc2ccc(C(=O)NN=Cc3ccc(C(=O)O)cc3)cc2)c1 | 7 | . | 8 | 26 | . | . | 8.4
COc1ccccc1N1CCN(c2nccc(C)n2)CC1 | 4 | 3758 | 1 | 13 | 6 | -30 | 2.6
NC(=O)CSc1nnc2ccc(-c3ccco3)nn12 | . | 3468 | . | . | 4 | -5 | .
CC1(C)CC(=O)C=C(NNC(=O)C2CCCCC2)C1 | 10 | 2760 | 8 | 0 | 2 | -10 | 1.2
Oc1ccccc1C1SC(c2ccccc2O)SC(c2ccccc2O)S1 (configuration not stated) | 10 | 3960 | 17 | 100* | . | -29 | 100*
CSc1nnc(-c2ccc(C(F)(F)F)nc2C)o1 | 4 | ? | 5 | 3 | 1 | -27 | 4.5
OCCC1CN(C2CSCCSC2)CCN1Cc1ccccc1 (configuration not stated) | 10 | 3274 | 6 | 5 | 3 | -12 | 12
Oc1ccc2oc3c(c2c1)CCCC3 | 6 | 3070 | 11 | -9 | -3 | -34 | 17
O=C(c1ccc(Cl)cc1)C1C2C(=O)N(c3ccccc3)C(=O)C2C2CCCN21 (configuration not stated) | . | 4445 | . | -6 | 3 | -17 | -2.7
O=c1nc(-c2ccccc2)cn[nH]1 | -2 | 3728 | -5 | 0 | -2 | -35 | -0.8
CCCCC1CNC(=S)N1CCc1cccc(F)c1 (configuration not stated) | 8 | . | 11 | -6 | . | . | 1.9
O=C(O)CSCC(=O)N1CCN(c2ncnc3scc(-c4ccccc4)c23)CC1 | -7 | 3220 | -16 | 16 | -7 | -19 | 3.8
COc1cc(C=NNC(=O)c2csc3c2CCCC3)ccc1OCCN1CCOCC1 | -2 | . | 8 | 4 | . | . | 1.5
COc1ccc(CCOC(=O)c2ccc(N)c([N+](=O)[O-])c2)cc1 | 4 | 5556 | 18 | 11 | -11 | -27 | 9.2
O=C(O)CCSc1nnc(-c2ccc3c(c2)OCO3)o1 | 4 | 3733 | 4 | -2 | -11 | 13 | 3.1
